# Screening data from PubChem BioAssay.
# SARS PLpro yeast: SARS-CoV PLP inhibition in yeast | Potency, µM (highest dose often 32.9 µM), inactives show top-dose activity, positive = growth rescue | AID 485353 | S. cerevisiae expressing SARS-CoV PLpro, growth rescue; control for the full effect not named in the record | 0.19% of 330,000 active; active means well fitted rising curve with a large enough effect; inconclusive means small, poorly fitted or top-dose-only effect; inactive means no such curve, though single readings can be large or run the other way; also: 0% is about no effect; nearly all actives have a fitted effect of over 55% in size; growth read by luminescence after 48 h
# Cruzain inh noDet: inhibitors of Trypanosoma cruzi cruzain without detergent. P25779. purified cruzain, Z-FR-AMC fluorescence, no detergent. Potency, µM, for inactives: max response, negative = inhibition, most hits filed as inhibitors. 2.3% of 200,000 active. AID 1476;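 also: plate controls were enzyme without inhibitor for no effect and buffer without enzyme for full effect; nearly all actives have a fitted effect of over 40% in size; top concentration of the series not given in the record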
# Target sequence (P25779 123-467 limits assumed): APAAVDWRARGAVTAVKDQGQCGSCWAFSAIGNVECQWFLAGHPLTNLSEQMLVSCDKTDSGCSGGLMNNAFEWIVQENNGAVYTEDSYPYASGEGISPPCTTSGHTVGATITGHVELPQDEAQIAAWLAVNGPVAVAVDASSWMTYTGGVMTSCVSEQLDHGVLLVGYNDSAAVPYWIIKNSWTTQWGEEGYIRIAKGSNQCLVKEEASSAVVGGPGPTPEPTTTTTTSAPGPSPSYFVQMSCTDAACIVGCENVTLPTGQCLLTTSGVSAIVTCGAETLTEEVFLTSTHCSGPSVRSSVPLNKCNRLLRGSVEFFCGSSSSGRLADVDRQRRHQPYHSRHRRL
#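 Purified cruzain at 1.5 nM, pre-incubated 15 min with compound at room temperature in 100 mM sodium acetate pH 5.5, 5 mM DTT, 0.00005% Triton X-100. Reaction started with 2 uM Z-FR-AMC; AMC fluorescence increase over 60 s gives rate.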
# StopGo reporter: lowers the luciferase signal of an FMDV 2A StopGo reporter. human cells with a luciferase reporter of 2A StopGo recoding; control for the full effect not named in the record. Potency, µM (titrated, usually from 57.9 µM), for the others: top-dose signal change, negative = less light. 1.2% of 410,000 active. AID 1159524; active = well fitted falling curve with a large enough effect; inconclusive = small, poorly fitted or top-dose-only effect; inactive = no such curve, though single readings can be large or run the other way; tested in HEK293T cells; also: % is scaled to controls: 0 for no effect and ±100 for the full control effect; nearly all actives have a fitted effect of over 45% in size; luciferase light after 4 h
# Lassa entry inh: inhibitors of Lassa virus binding or cell entry; Lassa virus pseudotype entry inhibition, cell reporter; control for the full effect not named in the record; Potency, µM (doses to about 37.9 µM), for the others: at the top dose activity change, negative = inhibition, usual class: inhibitors; 1.2% of 300,000 active; active means well fitted inhibition curve with a large enough effect; inconclusive means small, poorly fitted or top-dose-only effect, or effect the other way; inactive means flat fitted curve, though single readings scatter; tested in HEK293 cells; also: % is scaled to controls: 0 for no effect and ±100 for the full control effect; nearly all actives have a fitted effect of over 50% in size; luciferase read-out
# NS1 inh: blocks influenza NS1 protein function; S. cerevisiae slowed by influenza A NS1, growth recovery by OD600; 0.4% of 270,000 active; Potency, µM (highest dose often 46.1 µM), for the others: at the top dose activity, positive = more growth; AID 2326; active means well fitted rising curve with a large enough effect; inconclusive means small, poorly fitted or top-dose-only effect; inactive means no such curve, though single readings can be large or run the other way; also: nearly all actives have a fitted effect of over 50% in size
#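 S. cerevisiae expressing influenza A NS1, grown in glucose, washed, then diluted 1:100 into pH 6.0 -URA galactose medium with 23 nl compound. Growth recovery read as OD600; NS1-free strain serves as control.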
# Cruzain Triton: inhibitors of Trypanosoma cruzi cruzain with detergent; P25779; purified cruzain, Z-FR-AMC fluorescence, 0.01% Triton; Potency, µM, for the others: max response, negative = inhibition, actives largely listed as inhibitors; 0.43% of 200,000 active; AID 1478;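 also: plate controls were neutral wells for no effect and buffer without enzyme for full effect; nearly all actives have a fitted effect of over 40% in size; top concentration of the series not given in the record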
#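 15 min RT preincubation of 1.5 nM cruzain with compound, then 2 uM Z-FR-AMC added; kinetic AMC fluorescence, 60 s delta. Triton X-100 0.01%, pH 5.5.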
# RE007 growth inh: less growth of the S. pombe RE007 Vpr strain; S. pombe RE007 Vpr strain, BacTiter-Glo ATP luminescence, 24 h; control for the full effect not named in the record; Potency, µM (doses to about 92.2 µM), without a hit: at the highest dose activity change, negative = less growth; 0.21% of 360,000 active; active = well fitted falling curve with a large enough effect; inconclusive = small, poorly fitted or top-dose-only effect; inactive = no such curve, though single readings can be large or run the other way;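 also: % is scaled to controls: 0 for no effect and ±100 for the full control effect; nearly all actives have a fitted effect of over 50% in size; the assay follows cell death caused by Vpr and the record does not say whether a fall means rescue or toxicity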
#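 Fission yeast RE007 carrying one integrated HIV-1 vpr copy, seeded at OD 0.01 in PMG+AL medium with 23 nL pinned compound. Grown 24 h at 30 degrees; viability read by BacTiter-Glo luminescence after 5 min.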
# Marburg entry inh: inhibitors of Marburg virus binding or cell entry; Potency, µM (titrated, usually from 37.8 µM), for inactives: top-dose activity change, negative = inhibition, hits mostly inhibitors; Marburg virus pseudotyped entry inhibition, cell reporter; control for the full effect not named in the record; about a third of the inactives were read at about 46 µM; 1.8% of 300,000 active; active = well fitted inhibition curve with a large enough effect; inconclusive = small, poorly fitted or top-dose-only effect, or effect the other way; inactive = flat fitted curve, though single readings scatter; tested in HEK293 cells; about a fifth of its hits are not listed in these tables; also: % is scaled to controls: 0 for no effect and ±100 for the full control effect; luciferase read-out
# * hit, by the source's call; ? = inconclusive; nt = not tested or not shown; & = joins results of further samples; [ ] = remark or other dose. Unless noted, calls follow the shape of the dose curve; as a rule, active = well fitted curve in the direction sought with a large enough effect; inconclusive = small, poorly fitted or top-dose-only effect, or another doubt; inactive = no such curve, though single readings can be large; an effect the other way counts as inactive or inconclusive. Potency is read from the fitted curve at half-maximal effect.
SMILES,SARS PLpro yeast,Cruzain inh noDet,StopGo reporter,Lassa entry inh,NS1 inh,Cruzain Triton,RE007 growth inh,Marburg entry inh
Cc1nn(C)c(C)c1C1C(C#N)=C(N)Oc2n[nH]c(C)c21 (configuration not stated),10.7%,1.6%,-23.5%,-0.5%,5.3%,0.0%,-9.3%,-0.8%
CN1CCN(CCc2nc3cc(NC(=O)COc4ccc([N+](=O)[O-])cc4)ccc3n2C)CC1,2.7%,nt,0.4%,16.9%[46.1 µM],-1.6%,nt,-17.9%,-0.9%[46.1 µM]
COc1ccc(/C=N/NC(=O)C[n+]2ccccc2)c(OC)c1OC,-0.4%,-7.6%,-8.5%,11.1%,-1.0%,-4.0%,3.8%,2.1%
COc1ccc(-c2ccc(SCC(=O)NCc3ccco3)nn2)cc1OC,5.0%,-17.3%,11.7%,-8.6%,7.7%,-1.5%,2.4%,-2.0%
NS(=O)(=O)c1ccc(CCNC(=O)C2CCN(S(=O)(=O)c3cnc[nH]3)CC2)cc1,?,7.8%,nt,?,-8.0%,0.5%,-0.1%,4.6%
CC(=O)Nc1cccc(NC(=O)c2oc3ccccc3c2C)c1,-12.5%,2.0%,nt,nt,-22.1%,-4.7%,nt,nt
Cc1nc2cc(NC(=O)c3ccc(S(=O)(=O)N(C)c4ccccc4)cc3)ccc2o1,-4.7%,nt,22.4µM*,-18.2%,6.3%,nt,14.1%,?
COc1ccc(C(=O)Nc2ccccc2-c2nnn(CC(=O)NCc3ccco3)n2)cc1,5.4%,?,-25.7%,-13.6%,2.5%,-0.1%,2.0%,0.3%&5.5%
CC(=O)Nc1cc(C(=O)N2CCc3ccccc3C2)ccc1Sc1ccc(C)cc1,-7.8%,24.0%,-23.3%,5.7%,-15.5%,-3.6%,16.0%,-19.7%
O=C1C(c2ccccc2)C(c2ccccc2)NC(c2ccccc2)C1c1ccccc1 (configuration not stated),0.9%,1.2%,-10.5%,?,-0.3%,-2.4%,-10.8%,?
CCN(C(=O)CSc1nnc(C)n2c1cc1occc12)c1ccccc1,nt,-4.5%,-17.4%,-2.0%[46.1 µM],nt,-4.7%,nt,nt
CCOC(=O)C/C(C)=N/NC(=O)CN(c1ccc(Br)cc1)S(=O)(=O)c1ccccc1,9.6%,8.0%,-9.5%,15.0%,?,-3.9%,8.9%,5.9%
CCNC(=O)NC(=O)C(C)OC(=O)C1CCN(S(=O)(=O)c2ccc(C)c(C)c2)CC1 (configuration not stated),0.0%,11.6%,27.4%,4.8%,7.3%,-0.9%,nt,10.3%
O=C(CSc1ccc(-c2ccc(Br)cc2)nn1)NC1CCCC1,0.0%,nt,-2.3%,4.3%,-0.8%,nt,-2.2%,14.9%
CCOC(=O)c1[nH]c(C)c(CCC(=O)N2CCN(c3cc(Cl)ccc3C)CC2)c1C,nt,?,?,-25.5%[46.1 µM],nt,-3.1%,nt,nt

# Two neighbouring entries from above:
SMILES,SARS PLpro yeast,Cruzain inh noDet,StopGo reporter,Lassa entry inh,NS1 inh,Cruzain Triton,RE007 growth inh,Marburg entry inh
CCOC(=O)C/C(C)=N/NC(=O)CN(c1ccc(Br)cc1)S(=O)(=O)c1ccccc1,9.6%,8.0%,-9.5%,15.0%,?,-3.9%,8.9%,5.9%
CCNC(=O)NC(=O)C(C)OC(=O)C1CCN(S(=O)(=O)c2ccc(C)c(C)c2)CC1 (configuration not stated),0.0%,11.6%,27.4%,4.8%,7.3%,-0.9%,nt,10.3%

# The listing continues.
SMILES,SARS PLpro yeast,Cruzain inh noDet,StopGo reporter,Lassa entry inh,NS1 inh,Cruzain Triton,RE007 growth inh,Marburg entry inh
CCN1CCN(Cc2ccc(NC(=O)Nc3ccccc3Cl)cc2)CC1,19.4%,4.5%,29.3%,17.3%,-7.9%,-0.9%,-2.1%,?
c1ccc(N=Nc2ccc3cccccc2-3)cc1,nt,nt,26.6%,?,nt,nt,-25.7%,-5.2%[46.1 µM]
COc1ccccc1N1C(=O)CC(Sc2nc(C)cc(C)n2)C1=O (configuration not stated),0.3%,-8.6%,nt,-8.0%,-15.4%[9.22 µM],2.0%,15.6%,22.7%
COc1cc(NC(=O)C(C)C)ccc1NC(=O)c1ccco1,0.7%,6.7%,nt,8.2%,-17.4%,1.9%,-3.0%,26.1%
Fc1ccc(CNCCc2c[nH]c3ccccc23)cc1,-8.9%,nt,0.0%,-26.2%[46.1 µM],13.5%,nt,-11.8%,10µM*
COc1ccccc1C(=O)Nc1ccc(OCc2cc(=O)n3ccsc3n2)cc1,nt,-13.3%,-12.8%,-2.1%[46.1 µM],nt,0.0%,nt,-0.3%[46.1 µM]
COc1ccc(CNCCC(c2ccc(OC(C)C)cc2)c2ccccc2OC)cc1OC (configuration not stated),-4.0%,nt,?,?,0.4%,nt,-8.5%,?
Cc1ccc(S(=O)(=O)/C(C#N)=C/c2c(N3CCN(Cc4ccccc4)CC3)nc3ccccn3c2=O)cc1,25.2%,nt,-1.5%,nt,-18.9%,nt,-8.3%,nt
CCOC(=O)c1c(NC(=O)COC(=O)CCOc2ccc(C)cc2)sc(C(=O)N(C)C)c1C,-16.2%,nt,0.1%,19.5%,nt,nt,-4.1%,18.5%
COc1ccc(NC(=O)NC2CCCCC2C)cc1 (configuration not stated),-0.9%,nt,0.0%,nt,-12.3%,nt,10.7%,nt
O=C(CS(=O)(=O)c1ccc(F)cc1)Nc1nccs1,-1.5%,nt,17.5%,-3.2%,nt,nt,12.7%,-0.3%[46.1 µM]
O=C(CCc1nc2ccccc2c(=O)[nH]1)OCCOc1ccc(Cl)cc1,1.6%,nt,-27.1%,5.4%[46.1 µM],4.3%,nt,11.6%,?
S=c1[nH]nc(COc2ccccc2)n1/N=C/c1cccs1,-86.1%,0.8%,-14.8%,?,-7.2%,-11.8%,8.9%,?
Cc1oc2ncn(C)c(=O)c2c1C(=O)NCc1ccccc1,nt,-10.8%,13.8%,-3.6%[46.1 µM],nt,-0.8%,nt,nt
O=C(Cn1nc(-c2ccco2)ccc1=O)Nc1ccc(Cl)c(Cl)c1,-5.3%,nt,37.1%[activator],-16.4%,-9.6%,nt,17.4%,13.3%[46.1 µM]
C=CCN(c1ccc(C(=O)Nc2ccc3c(c2)n(C)c(=O)n3C)cc1)S(C)(=O)=O,0.8%,nt,3.2%,-9.1%,1.6%,nt,2.7%,0.2%
CC1=C(C(=O)OCc2ccc(C)cc2)C(c2c(Cl)cccc2Cl)CC(=O)N1 (configuration not stated),nt,13.7%,-12.6%,5.2%[46.1 µM],nt,-6.9%,nt,3.0%[46.1 µM]
O=C(O)C1CCCCC1C(=O)Nc1ccc(Cl)cc1 (configuration not stated),-6.8%,1.9%,19.5%,-22.3%,10.3%,-5.1%,-6.1%,5.4%
CCn1c(C(=O)Nc2ccsc2C(=O)OC)cc2sc(Cl)cc21,4.9%,-3.0%,0.0%,nt,-63.2%,41.9%[activator],-8.3%,nt
COc1ccc(-n2c(/C=C3\C(=O)N(C)c4ccccc43)nc3ccccc3c2=O)cc1,-0.5%,nt,?,?,-6.3%,nt,-7.2%,-12.1%[14.2 µM]
CN(Cc1cnn(C)c1)C(=O)C1CCC(=O)N(Cc2cccc(C(F)(F)F)c2)C1 (configuration not stated),-2.5%,nt,-15.3%,-4.1%,3.2%,nt,-6.1%,?
Cc1[nH]c(=S)sc1Cc1ccc(Cl)c(Cl)c1,?,-4.5%,nt,7.6%,11.2%,-7.4%,nt,-2.8%
O=C(COC(=O)c1ccccc1)Nc1cccc(S(=O)(=O)N2CCOCC2)c1,2.5%,nt,-4.4%,8.6%[46.1 µM],nt,nt,13.3%,0.3%[46.1 µM]
COc1cccc(C2c3cc4c(cc3OC(NNC(N)=O)C2C)OCO4)c1O (configuration not stated),nt,nt,-18.2%,?,nt,nt,9.3%,?
O=S(=O)(NCC1OCCc2ccccc21)c1ccc(S(=O)(=O)N2CCOCC2)cc1 (configuration not stated),7.0%,5.7%,28.0%,?,-1.9%,-1.1%,-3.7%,-3.3%
COc1ccc(NS(=O)(=O)c2ccc3c(c2)CC(C)N3C(=O)C2CCC2)cc1OC (configuration not stated),nt,-2.4%,?,?,nt,-4.8%,nt,nt
CCOc1ccccc1NC(=O)CCNS(=O)(=O)c1ccc2[nH]c(=O)oc2c1,-2.4%,nt,4.6%,nt,11.4%,nt,-8.2%,nt
Cc1cc(C)nc(NS(=O)(=O)c2ccc(NC(=O)CSc3nc4ccccc4[nH]3)cc2)n1,1.1%,1.4%,60.1%[activator],-16.7%,-1.2%,-1.8%,-5.6%,-9.7%
O=C(COc1ccc2ccccc2c1)N1c2ccccc2Sc2ccccc21,-8.0%,?,-22.4%,?,11.7%,-3.1%,5.5%,?
COc1cccc(NC(=O)COC(=O)COc2cccc3c2OC(C)(C)C3)c1,-1.5%,nt,-9.4%,2.0%,-28.1%,nt,-21.8%,23.9%
COc1ccc(C(=O)NC(=S)NNC(=O)c2ccc3ccccc3n2)cc1,0.1%,nt,-28.8%,?,-1.4%,nt,3.8%,?
CCc1cccc(NC(=O)c2ccc(Cn3nc(C)cc3C)o2)c1,-16.8%,7.6%,4.1%,6.2%,-5.3%,-1.0%,4.1%,22.4%
Cc1nc(C)c(-c2csc(NCc3ccco3)n2)s1,-17.7%,-7.6%,20.5%,4.9%,-18.2%,-7.2%,-26.9%,14.8%

# Filtered by structure: those above with fluorine (3)
SMILES,SARS PLpro yeast,Cruzain inh noDet,StopGo reporter,Lassa entry inh,NS1 inh,Cruzain Triton,RE007 growth inh,Marburg entry inh
Fc1ccc(CNCCc2c[nH]c3ccccc23)cc1,-8.9%,nt,0.0%,-26.2%[46.1 µM],13.5%,nt,-11.8%,10µM*
O=C(CS(=O)(=O)c1ccc(F)cc1)Nc1nccs1,-1.5%,nt,17.5%,-3.2%,nt,nt,12.7%,-0.3%[46.1 µM]
CN(Cc1cnn(C)c1)C(=O)C1CCC(=O)N(Cc2cccc(C(F)(F)F)c2)C1 (configuration not stated),-2.5%,nt,-15.3%,-4.1%,3.2%,nt,-6.1%,?
